Screens (PubChem BioAssay)
D2 ag: human D2 receptor agonism in beta-arrestin assay; P14416; DiscoveRx PathHunter D2 beta-arrestin, luminescence, 90 min; 100% = 57 uM dopamine signal; activation, % (no concentration beside the values); actives 0.084% (n = 360,000); in the data active = activation above about 40%; inconclusive = about 15% to 40%; inactive = below about 15%; also: compound concentration not given in the record; the text of the record calls up to 30% inactive
Target sequence (P14416 whole entry, looked up): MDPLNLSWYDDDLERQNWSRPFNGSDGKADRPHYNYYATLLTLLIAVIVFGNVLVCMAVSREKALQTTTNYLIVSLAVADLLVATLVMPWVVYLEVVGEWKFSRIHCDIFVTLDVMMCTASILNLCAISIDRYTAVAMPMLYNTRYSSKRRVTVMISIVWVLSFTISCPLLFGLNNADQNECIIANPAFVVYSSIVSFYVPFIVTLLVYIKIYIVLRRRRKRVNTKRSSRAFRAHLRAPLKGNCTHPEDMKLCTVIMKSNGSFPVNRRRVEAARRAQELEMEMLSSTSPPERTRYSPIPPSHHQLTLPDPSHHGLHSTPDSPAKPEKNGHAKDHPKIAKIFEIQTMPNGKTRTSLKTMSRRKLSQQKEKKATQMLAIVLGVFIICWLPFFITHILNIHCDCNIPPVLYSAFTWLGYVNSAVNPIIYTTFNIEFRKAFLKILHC
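DiscoveRx PathHunter D2 beta-arrestin cells (2,100/well) attached overnight, then compound-stimulated 90 min at 37 C in HBSS/10 mM HEPES/0.1% Tween-20 buffer; beta-galactosidase complementation read by luminescence after 1 h at ambient temperature. Dopamine 57 uM final (EC100) as control.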
PINK1 expr mod: PINK1 expression modulation; actives 0.2% (n = 410,000); Potency, µM (series often up to 76.6 µM), for the others: at the top dose activation (PINK1 increase), actives largely listed as activators; PINK1 immunofluorescence, high-content cytometry, 24 h; AID 624263; active = well fitted activation curve with a large enough effect; inconclusive = small, poorly fitted or top-dose-only effect; inactive = flat fitted curve, though single readings scatter; cell line not stated here;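 also: potency is read from the fitted curve at half-maximal effect; % of control where 0% means no effect; nearly all actives have a fitted effect of over 65% in size; a mitochondrial uncoupler was the plate control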
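A stable cell line was treated with compounds at 5 concentrations for 24 hours, with CCCP as control. PINK1 levels and mitochondrial localization were measured by immunofluorescence with mitochondrial, cell and nuclear markers after fixation, read by laser-scanning cytometry.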
Six1-Eya2 inh: inhibitors of human Six1/Eya2 interaction | Q15475+O00167 | AlphaScreen GST-Six1/His-Eya2 binding, biochemical; hits give low values; control for the full effect not named in the record | activity change, % (no concentration beside the values) | actives 0.56% (n = 360,000); in the data active = activity change below about -65%; inconclusive = about -30% to -65%; inactive = above about -30%; also: % is scaled to controls: 0 for no effect and ±100 for the full control effect; compound concentration not given in the record
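AlphaScreen with GST-Six1 and His-Eya2 (5X mix: 250 nM and 500 nM), glutathione donor and nickel acceptor beads; buffer 50 mM Tris pH 8.0, 300 mM NaCl, 1 mM TCEP; 1 h at 37 C in the dark.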
TRPML1 agonist: human mucolipin-1 channel agonism; Q9GZU1; TRPML1-expressing cells, Ca2+ dye fluorescence, FDSS; host cell line not named in the record; reference of the full effect not given here; AID 624414; actives 0.12% (n = 410,000); activation, % (concentration not given with the values); in the data active = activation above about 50%; inconclusive = about 30% to 50%; inactive = below about 30%; also: 0% is about no effect; the text of the record puts the active cut at 80%
Target sequence (Q9GZU1 whole entry, looked up): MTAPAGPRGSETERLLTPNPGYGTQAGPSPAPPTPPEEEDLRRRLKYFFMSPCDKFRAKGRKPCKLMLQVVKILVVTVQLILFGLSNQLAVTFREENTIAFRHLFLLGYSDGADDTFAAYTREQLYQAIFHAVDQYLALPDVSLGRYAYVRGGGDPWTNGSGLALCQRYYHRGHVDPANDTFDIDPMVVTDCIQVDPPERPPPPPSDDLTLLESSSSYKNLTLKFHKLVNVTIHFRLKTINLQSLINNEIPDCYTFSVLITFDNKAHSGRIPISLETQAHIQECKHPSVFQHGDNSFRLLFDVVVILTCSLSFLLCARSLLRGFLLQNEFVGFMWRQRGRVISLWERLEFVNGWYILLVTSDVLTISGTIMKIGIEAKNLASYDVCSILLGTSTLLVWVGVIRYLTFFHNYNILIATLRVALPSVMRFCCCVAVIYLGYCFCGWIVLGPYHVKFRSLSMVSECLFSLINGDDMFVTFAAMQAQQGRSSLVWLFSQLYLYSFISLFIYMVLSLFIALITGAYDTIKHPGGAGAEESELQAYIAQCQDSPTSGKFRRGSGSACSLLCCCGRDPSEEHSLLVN
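Cells: TRPML1-DL, 1X Tet inducer, ~16 h at 37 degrees C/5% CO2. Dye: ABD Ca8 no-wash + quencher, 45-90 min RT. Read: 10 s baseline, compound add, 110 s agonist phase; 54-4 EC80 (4uM final), 110 s antagonist phase.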
TRPML1 blocker: human mucolipin-1 channel inhibition; Q9GZU1; TRPML1-inducible cells, Ca2+ dye fluorescence, FDSS; hits give low values; inhibition of EC80 agonist-evoked calcium signal; activity change, negative = inhibition, % (concentration not given with the values); actives 0.02% (n = 390,000); in the data active means activity change below about -50%; inconclusive means about -30% to -50%; inactive means above about -30%;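 also: stimulus is agonist 54-4 at its EC80 concentration; % is scaled to controls: 0 for no effect and ±100 for the full control effect; compound concentration not given in the record; the text of the record puts the active cut at -80%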
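Calcium fluorescence in TRPML1-DL cells induced overnight with Tet: a 110 s read after compound pin addition, then a 110 s antagonist read after challenge with 54-4 at 4 uM final (EC80).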
D2 PAM: positive allosteric modulators of human D2 dopamine receptor. DiscoveRx D2 beta-arrestin cells, luminescence, 90 min; 100% = 57 uM dopamine signal. actives 0.23% (n = 360,000). AID 624464. potentiation, % (no concentration beside the values); active = potentiation of 50% or more; inconclusive = 30% to 50%; inactive = 30% or less;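 also: compound concentration not given in the record; tested on top of an EC20 dose of dopamine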
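PathHunter beta-arrestin assay in DiscoveRx D2 cells. Compounds were added with an EC20 of dopamine (50 nM final) for 90 min at 37 deg C. Luminescence was read 1 h after detection reagent, with 57 uM dopamine as the EC100 control.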
* = called active by the depositor; ? = inconclusive; / = no result given; & = joins results of further samples; [ ] = another dose, or the depositor's remark.

compound	D2 ag	PINK1 expr mod	Six1-Eya2 inh	TRPML1 agonist	TRPML1 blocker	D2 PAM
CCOc1ccc(OC(=O)c2c(-c3ccccc3Cl)noc2C)cc1	/	2.0%	/	-0.1	17	/
Cc1cc(C)n(-c2nc3ccccc3nc2N2CCCCCC2)n1	-2.1	0.3%	64	0.6	10	-11
O=C(NCCc1csc(-c2cccnc2)n1)c1ccc(Cl)cc1	-6.3	3.4%	1	-0.4	11	-11
O=C(c1ccc(F)cc1F)N1CCC(c2noc(-c3ccc(S(=O)(=O)N4CCCC4)cc3)n2)CC1	/	-0.2%	/	-0.2	8	/
O=S1(=O)c2ccc(Br)cc2N2CCC[C@@H]2CN1C1CC1	-0.6	1.5%	2	0.4	3	-3
CSCCC(NC(=O)c1ccccc1)C(=O)N1CC(C)OC(C)C1 (configuration not stated)	14	1.7%	4	1.2	-17	0
CC(NC(=O)c1ccco1)C12CC3CC(CC(C3)C1)C2 (configuration not stated)	-7.6	2.3%	-2	-0.2	-1	-5
CC(C)C[C@H](NC(=O)CCCn1nnc2ccccc2c1=O)C(=O)O	-3.3	-0.5%	-1	1.0	-13	-8
Nc1nc(O)c(Sc2ccccc2[N+](=O)[O-])c(=O)[nH]1	-0.1	2.9%	-6	-0.1	-1	-7
COc1ccc(C)cc1Nc1nc(-c2c(C)[nH]c3ccccc23)cs1	-4.9	-0.3%	1	0.5	4	-11
O=c1cc(-c2c(F)c(F)c(F)c(F)c2F)oc2ccccc12	-2.8	1.8%[38.3 µM]	-2	0.3	-13	-18
CNC(=O)c1cn(-c2ccc(Cl)cc2)c(=O)c2ccccc12	-1.0	-0.6%	-4	2.3	13	-4
COc1ccc(S(=O)(=O)N(C)Cc2cccs2)cc1Br	0.1	-0.6%	23	2.3	7	-7
O=C(c1cc2cc(F)ccc2[nH]1)N1CCCC(Nc2ccc(F)cc2)C1 (configuration not stated)	3.6	-0.9%	-4	0.9	12	-6
O=C(Cc1ccccc1)Nc1c(C(=O)Nc2ccccc2F)oc2ccccc12	/	5.5%	/	-0.4	9	/

An excerpt taken from the entries so far, for reference:
compound	D2 ag	PINK1 expr mod	Six1-Eya2 inh	TRPML1 agonist	TRPML1 blocker	D2 PAM
CCOc1ccc(OC(=O)c2c(-c3ccccc3Cl)noc2C)cc1	/	2.0%	/	-0.1	17	/
Cc1cc(C)n(-c2nc3ccccc3nc2N2CCCCCC2)n1	-2.1	0.3%	64	0.6	10	-11
O=C(NCCc1csc(-c2cccnc2)n1)c1ccc(Cl)cc1	-6.3	3.4%	1	-0.4	11	-11

New compounds follow.
compound	D2 ag	PINK1 expr mod	Six1-Eya2 inh	TRPML1 agonist	TRPML1 blocker	D2 PAM
Cc1ccc(-c2nn(-c3ccccc3)cc2C=C2C(=O)CC(C)(C)CC2=O)cc1	1.4	-0.6%	6	0.7	-10	-2
Cn1c(=O)c2c(nc(N3CCN(Cc4ccccc4)CC3)n2CCCc2ccccc2)n(C)c1=O	-4.8	-0.3%	-26	0.1	36	-4
CC(C)Oc1ccc(OCCn2c(S(=O)(=O)O)nc3c(N)ncnc32)cc1	2.9	-0.2%	7	0.4	-1	-2
NC(=S)NN=C(c1ccc(F)cc1)C1CC1	0.1	-5.3%	-4	-0.6	-6	3
C/C(=N/NC(=O)c1cc(-c2ccccc2)nc2c(Cl)cccc12)c1cccnc1	-3.7	11%	0	0.2	-13	-21
CCN(CC)C(=O)C1=C(C)N(CCCN2CCCC2=O)C(=O)C(CC(=O)NCc2cccc3ccccc23)C1 (configuration not stated)	-3.9	-0.1%	5	-0.2	20	0
Nc1nonc1C(=O)NCCNC(=O)c1cccs1	-0.3	/	0	-0.4	0	-25
COCc1nnc(NC(=O)C2CC(=O)N(CCc3ccc(F)cc3)C2)s1 (configuration not stated)	-3.3	0.5%	2	0.3	4	-7
Cn1c(NC(=S)Nc2ccccc2)nc2ccccc21	-0.5	-0.4%	-6	1.0	3	15
Cc1cccc(CN2C(=O)c3ccccc3Sc3ccc(C(=O)NCCCN4CCOCC4)cc32)c1	-4.1	-1.5%&1.2%	0	1.6&5.4	1&14	-16
O=C(Nc1ccccc1Cl)N1CCN(c2ccc3nnc(-c4ccccc4)n3n2)CC1	6.7	1.2%	?	0.3	-6	1
O=C(CC1NCCNC1=O)OCc1ccccc1 (configuration not stated)	1.8	-2.5%	10	0.3	-12	17
C[C@@H]1CNC(=O)c2c(C(=O)NC3CCN(C(=O)OC(C)(C)C)CC3)ncn21	-4.4	1.4%	3	-0.1	/	-7
CS(=O)(=O)Nc1nnc(CCc2ccccc2)s1	-0.5	0.2%	6	0.0	-8	0
O=C(NC(=S)N1CCN(C/C=C/c2ccccc2)CC1)c1cccnc1	-3.1	0.4%	5	-0.2	-6	-10
Cc1cc(OCC(=O)OCC(=O)Nc2cc(S(=O)(=O)N3CCOCC3)ccc2Cl)ccc1Cl	-4.5	-0.7%	-5	0.5	14	-1
O=C(Cn1nc2ccccc2n1)N/N=C/c1ccc(F)cc1	-1.0	4.5%	-10	1.4	27	-2
O=C(C1=NOC(CNc2ncc(C(F)(F)F)cc2Cl)C1)N1CCOCC1 (configuration not stated)	-1.0	0.4%	1	-0.7	-14	1
CCCCOC(=O)NCN1C(=O)C2C3C=CC(C3)C2C1=O (configuration not stated)	-2.5	-1.4%	3	-0.6	-11	-2
Cc1cc(C)c2c(=O)[nH]c(SCC(=O)N(C)C)nc2n1	-2.8	/	5	0.1	-5	-2
O=C(O)C1C(c2ccccc2)=C1c1ccc(Br)cc1 (configuration not stated)	-4.0	-1.5%	0	-0.5	-1	0
CCN(CC(=O)Nc1ccc(NC(C)=O)cc1)C(=O)c1cccc(-n2cccc2)c1	-3.5	3.8%	-22	0.6	3	0
CCOc1ccc(S(=O)(=O)c2c[nH]c3ccc(C)cc3c2=O)cc1	5.1	5.5%	-11	1.9	1	-6
COc1ccc(NC(=S)NCCSc2ccc(C)cc2)c(OC)c1	-3.2	0.0%	?	0.4	0	-11
Cc1cc(Br)ccc1NC(=O)CN(C)C(=O)CN1C(=O)NC(C)(C2CC2)C1=O (configuration not stated)	-0.4	-0.5%	-3	0.1	4	-3
COc1ccc([N+](=O)[O-])cc1NC(=O)Cn1ccc(C(F)(F)F)n1	3.4	-1.0%	2	1.5	17	-5
Cc1ccc(C2(C)NC(=O)N(CC(=O)Nc3ccc(N4CCOCC4)cc3N3CCOCC3)C2=O)cc1 (configuration not stated)	-0.2	-1.1%	-2	0.2	4	6
Cc1c(NS(=O)(=O)c2ccc(F)cc2)c(=O)n(-c2ccccc2)n1C	2.6	-0.7%	-2	0.8	-3	-4
CCC(=O)c1c[nH]c(C(=O)NCc2cccc(C(F)(F)F)c2)c1	2.5	0.2%	4	-1.2	-11	-4
O=C(CCl)NC(=O)NC12CC3CC(CC(C3)C1)C2	-1.2	-2.7%	-3	0.7	14	-12
O=C(NCc1ccccc1)N[C@@H](Cc1ccccc1)C(=O)O	-0.8	4.8%[38.3 µM]	1	-0.3	8	6
Cc1cccc(-c2nc(CSCC(=O)NCc3cccs3)c(C)o2)c1	-3.0	-3.4%	0	3.3	-2	3
CCn1c(COc2ccc3ccccc3c2C)nnc1SCC(=O)Nc1cccc(C(=O)O)c1	5.1	-1.4%	-15	0.9	-3	10
O=C1OC(/C(=C\Nc2ccccc2)[N+](=O)[O-])c2ccccc21 (configuration not stated)	-2.3	-0.6%	-1	-0.2	7	2
COc1cccc(CNc2ccc([N+](=O)[O-])cc2C)c1	-4.1	-0.6%	-13	-0.1	-1	-28
CCOC(=O)C1=C(C)NC2(O)c3ccccc3C(=O)C12O (configuration not stated)	-4.5	5.2%	1	-0.2	13	-33
Cc1cc(C)n(C(=O)Cn2nc(C)c(Cl)c2C)n1	0.8	-0.2%	0	0.2	6	-3
CN1C(=O)SC(Nc2ccc(F)cc2)C1=O (configuration not stated)	-6.4	-0.7%	3	-0.5	-1	-29
Cc1c(NC(=O)c2ccccc2F)c(=O)n(-c2ccccc2)n1C	-0.7	-1.3%[38.3 µM]	0	-0.3	-4	-2
Cc1nc2cc3sc(C)nc3cc2s1	-3.0	0.0%	2	-0.3	20	-9
CC1=C/C(=N\S(=O)(=O)c2ccccc2)C(C(C)C)=CC1=O	6.8	1.3%	3	0.8	22	13
CC(CNCC1CCCO1)COc1ccccc1 (configuration not stated)	-1.0	1.7%	2	-1.0	-6	-14
FC(F)(F)c1cc(C(F)(F)F)c2ccc(Oc3ccccc3)nc2n1	0.9	-1.3%	0	2.9	-3	-1
CCc1cc2c(cc3c(=O)n(CCCC(=O)NCc4cccc(Cl)c4)ncn32)s1	/	0.8%	/	-0.7	5	/
CC(C)(C#CC(O)(c1ccccc1)c1ccccc1)N1CCCCC1	3.2	0.2%	0	-1.3	-7	-9
O=C(CSC1=NC(=O)C(c2ccccc2)C(=O)N1)Nc1ccccc1[N+](=O)[O-] (configuration not stated)	2.9	-0.3%	-7	0.6	-13	0
O=C(Nc1nc2ccc(F)cc2s1)c1cccs1	-2.0	-1.3%	-2	-0.1	17	-11
O=C(NCc1cccnc1)c1ccccc1Br	-3.1	-3.0%[38.3 µM]	4	-0.2	-2	-21
CC1Cc2ccccc2N1C(=O)CSc1nnnn1Cc1ccccc1 (configuration not stated)	-4.1	-2.0%	-3	1.7	17	-15
CCCNc1cc(=S)nc(N)[nH]1	7.3	1.2%	-11	-0.3	10	-10
COc1ccc(NS(=O)(=O)c2ccc3c(c2)NC(=O)C(C)S3)cc1 (configuration not stated)	2.2	-1.0%	1	2.1	12	-4
O=[N+]([O-])c1cc(Cl)cc(C2=NCCN2)c1	-0.9	-2.7%[38.3 µM]	-13	-0.7	7	6
Cc1ccc(OCC(=O)NCc2cccs2)c([N+](=O)[O-])n1	-3.9	1.7%	16	0.2	23	-6
O=C(NCc1nnc(SCC(=O)N2CCC(Cc3ccccc3)CC2)o1)c1ccccc1F	-4.9&-0.4	-0.7%	-2	0.8	-2	-8
CCOc1cc(C(=O)Nc2cc3c(cc2N2CCCC2)n(C)c(=O)n3C)cc(OCC)c1OCC	-0.1	0.5%	5	-0.4	21	-9
CCC1CCCCN1Cc1c(O)ccc2c(=O)c(-c3ccccc3)coc12 (configuration not stated)	-0.7	0.3%	0	0.0	23	-10
Cc1cc(NS(=O)(=O)c2cccc([N+](=O)[O-])c2)no1	-5.0	0.1%	1	0.3	23	-23
COc1ccc(Cc2nnc(SCC(=O)c3ccc(OC)cc3)o2)cc1	-2.7	/	-1	0.7	0	-2
